# High-throughput results: PubChem BioAssay, National Center for Advancing Translational Sciences (NCATS)
# TRPML1 inh – blocks the human TRPML1 channel; AID 624415; actives 0.02% (n = 390,000); TRPML1-inducible cells, Ca2+ dye fluorescence, FDSS; active compounds read low; inhibition of EC80 agonist-evoked calcium signal; activity change, negative = inhibition, % (test concentration not listed); in the data active means activity change below about -50%; inconclusive means about -30% to -50%; inactive means above about -30%;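 also: stimulus is agonist 54-4 at its EC80 concentration; % is scaled to controls: 0 for no effect and ±100 for the full control effect; compound concentration not given in the record; the text of the record puts the active cut at -80%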
# Target sequence (Q9GZU1 whole entry, looked up): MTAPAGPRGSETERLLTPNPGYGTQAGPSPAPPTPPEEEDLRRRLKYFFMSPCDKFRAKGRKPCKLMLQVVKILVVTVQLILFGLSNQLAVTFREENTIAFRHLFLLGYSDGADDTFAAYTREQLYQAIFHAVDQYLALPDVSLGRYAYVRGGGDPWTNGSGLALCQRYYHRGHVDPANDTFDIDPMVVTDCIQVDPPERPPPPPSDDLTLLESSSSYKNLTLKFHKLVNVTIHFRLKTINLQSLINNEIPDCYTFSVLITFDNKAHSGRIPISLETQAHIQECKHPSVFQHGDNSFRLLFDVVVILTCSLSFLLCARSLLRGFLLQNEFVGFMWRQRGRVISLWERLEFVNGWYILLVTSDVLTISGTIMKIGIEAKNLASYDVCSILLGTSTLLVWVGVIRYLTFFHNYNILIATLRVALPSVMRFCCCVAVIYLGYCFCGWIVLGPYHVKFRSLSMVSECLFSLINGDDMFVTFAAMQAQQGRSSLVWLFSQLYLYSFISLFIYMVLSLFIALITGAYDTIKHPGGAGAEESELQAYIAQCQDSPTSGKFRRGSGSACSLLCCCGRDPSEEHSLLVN
#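 TRPML1-DL cells, Tet-induced overnight (~16 h, 37 °C) at 1,500 cells/well, were loaded with Ca8 no-wash dye plus quencher for 45-90 min at room temperature. Compounds were pinned during FDSS kinetic reading; agonist 54-4 at EC80 (4 uM final) then added.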
# ClpP mod – qHTS Assay for Activators of ClpP; actives 1.9% (n = 340,000); purified B. subtilis ClpP, FRET peptide cleavage, 20 min; AID 651965, 2013; ATP-dependent Clp protease proteolytic subunit (Bacillus subtilis (strain 168)), P80244; Potency, µM (titrated, usually from 57.5 µM), inactives show at the highest dose activity change, negative = active; active = well fitted falling curve with a large enough effect; inconclusive = small, poorly fitted or top-dose-only effect; inactive = no such curve, though single readings can be large or run the other way; also: potency is read from the fitted curve at half-maximal effect; the source files actives as falling curves though it sought activators and does not explain the sign; nearly all actives have a fitted effect of over 65% in size; many hits overshoot -100%
# Target sequence (P80244 whole entry, looked up): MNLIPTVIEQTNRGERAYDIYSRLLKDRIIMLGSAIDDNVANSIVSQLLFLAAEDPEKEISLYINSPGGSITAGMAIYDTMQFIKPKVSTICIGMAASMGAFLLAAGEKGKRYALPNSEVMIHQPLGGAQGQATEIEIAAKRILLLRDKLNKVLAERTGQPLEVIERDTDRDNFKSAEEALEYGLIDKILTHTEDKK
#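 ClpP 10 microg/mL final, pH 8 Tris/KCl buffer with BSA, glycerol, Tween-20; compound pinned in; FRET-FV substrate; RT 20 min; Ex320/Em430; ΔFRET vs ADEP 5.8 microM, DMSO, no enzyme.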
# Numbers without * were called inactive; ? = inconclusive. Only part of the results is shown, so the mix of outcomes need not match the whole.
SMILES,TRPML1 inh,ClpP mod
Cc1ccc(NC(=O)Cn2nnc3sc4c(c3c2=O)CCC(C)C4)cc1 (stereo not drawn),0.3,-2.2%
COc1cccc(C(c2sc3nc(-c4ccco4)nn3c2O)N2CCOCC2)c1 (stereo not drawn),-13.4,2.1%
CCc1ccc(NC(=O)c2ccc(F)c(S(=O)(=O)NCCc3ccc(OC)c(OC)c3)c2)cc1,-11.1,-6.5%
CN1c2cc(Cl)ccc2-c2nc(SCC(=O)Nc3ccc(F)cc3F)ncc2S1(=O)=O,1.5,-17.6%
COc1cc(NC(=O)Nc2c[nH]c(=O)[nH]c2=O)cc(OC)c1OC,-1.4,-0.6%
CCc1nc2nc(C)c(NS(=O)(=O)c3ccc(C)cc3)c(=O)n2[nH]1,34.9,-2.1%
CCc1ccc(S(=O)(=O)c2cn(CC(=O)Nc3cccc(C)c3)c3ccc(Cl)cc3c2=O)cc1,12.7,0.8%
CC1=C(c2ccc(F)cc2)S(=O)(=O)N=C1N1CCC(C(=O)NCCc2ccccc2C)CC1,7.7,2.5%
CCOc1cc(C2c3c(oc4ccccc4c3=O)C(=O)N2Cc2ccc(OC)cc2)ccc1O (stereo not drawn),27.1,0.2%
COc1ccc(Nc2oc(-c3ccc(COc4cccc(C)c4)o3)nc2C#N)cc1,-8.0,4.1%
CCc1ccccc1NC(=O)c1nnn(-c2ccc(F)cc2)c1C,-8.6,-0.6%
Cc1ccc(NC(=O)c2c(C)oc3ccc(O)c(CN4CCOCC4)c23)c(C)c1,15.5,1.7%
Cc1oc2ncnc(N3CCCCC3)c2c1C(=O)N1CCN(c2cccc(Cl)c2)CC1,6.3,0.5%
CCOc1ccc(NC(=O)CCS(=O)(=O)c2ccc(Br)s2)cc1,3.5,-0.6%
CN(C)c1ccc(NC(=O)Cn2cc(S(=O)(=O)Cc3ccccc3Cl)c3ccccc32)cc1,-10.7,1.1%
O=C(CSc1nc2nccnc2c(=O)n1CCc1c[nH]c2ccccc12)Nc1ccccc1F,-21.6,0.7%
CC(C)CNC(=O)C1=CC(c2ccc3c(c2)OCO3)=NS(=O)(=O)N1C,7.7,-1.2%
Cn1c(SCc2ccc(C(F)(F)F)cc2)nc2c([nH]c3ccccc32)c1=O,26.3,-4.7%
COc1ccc(-c2cn3c(n2)sc2cc(C(=O)Nc4cc(OC)cc(OC)c4)ccc23)cc1,5.1,?
COc1cc(/C=C/c2nc(C#N)c(N3CCN(C)CC3)o2)cc(OC)c1OC,0.4,4.5%
O=C(Cn1c(=O)ccc2cc(S(=O)(=O)N3CCCC3)ccc21)Nc1ccccc1,-10.9,9.4%
COCCNC(=O)CCCn1c(SCC(=O)Nc2ccc(F)cc2)nc2c(sc3ccccc32)c1=O,10.7,-21.4%
Cc1cc(NC(=O)C(C)(C)C)cc(-c2nc3ncccc3o2)c1O,-16.6,0.0%
CCCNC(=O)Nc1cc(C(=O)NCc2cccc(OCC)c2)ccc1N1CCCC1,10.0,-1.6%
Cc1nc(N2CCOCC2)c2c(C(=O)N3CCN(c4cccc(C(F)(F)F)c4)CC3)c(C)oc2n1,0.2,-0.7%
Cc1ccccc1C(=O)N1CCC(c2nc(-c3ccc(S(=O)(=O)N4CCCC4)cc3)no2)CC1,-19.9,-12.7%
CCOc1ccc(N(CC)C(=O)C2CCN(S(=O)(=O)c3cccc4nonc34)CC2)cc1,2.7,0.3%
Cc1nc(N2CCCC2)ncc1C(=O)Nc1ccc(F)cc1F,-12.8,?
Cc1ccc(NC(=O)CSc2nnc(-c3cc4occc4n3C)n2-c2ccccc2C)c(Cl)c1,12.6,-14.2%
c1ccc(Cc2c(-c3ccco3)nc3c4ccccc4ccn23)cc1,39.8,4.5%

# Of the compounds above, these contain an aryl methoxy group:
SMILES,TRPML1 inh,ClpP mod
COc1cccc(C(c2sc3nc(-c4ccco4)nn3c2O)N2CCOCC2)c1 (stereo not drawn),-13.4,2.1%
CCc1ccc(NC(=O)c2ccc(F)c(S(=O)(=O)NCCc3ccc(OC)c(OC)c3)c2)cc1,-11.1,-6.5%
COc1cc(NC(=O)Nc2c[nH]c(=O)[nH]c2=O)cc(OC)c1OC,-1.4,-0.6%
CCOc1cc(C2c3c(oc4ccccc4c3=O)C(=O)N2Cc2ccc(OC)cc2)ccc1O (stereo not drawn),27.1,0.2%
COc1ccc(Nc2oc(-c3ccc(COc4cccc(C)c4)o3)nc2C#N)cc1,-8.0,4.1%
COc1ccc(-c2cn3c(n2)sc2cc(C(=O)Nc4cc(OC)cc(OC)c4)ccc23)cc1,5.1,?
COc1cc(/C=C/c2nc(C#N)c(N3CCN(C)CC3)o2)cc(OC)c1OC,0.4,4.5%

# (next part)
SMILES,TRPML1 inh,ClpP mod
O=C(CSc1c2c(nc3cc(Cl)ccc13)CCCC2)NCc1ccccc1Cl,-3.8,-2.5%
CN(Cc1ccccc1)C(=O)CSc1nc2ccccc2n1Cc1ccccc1F,-0.7,-0.6%
CCCn1c(NCc2ccccc2F)nc2ccccc21,-6.7,0.2%
COc1ccc(CNC(=O)CCn2c(=O)c3cccn3c3ccc(F)cc32)cc1OC,0.2,-2.2%
CCc1nc2ccc(C(=O)NCCCn3ccnc3)cn2c1N(C)C(=O)c1cccc(OC)c1,-10.0,-1.0%
Cc1ccc(-n2nc(-c3ccccc3)c3cnc4cc5c(cc4c32)OCO5)cc1C,-4.2,-2.2%
CCOC(=O)c1[nH]c2ccccc2c1NC(=O)c1ccccc1OCC,1.7,-4.8%
CCOC(=O)c1[nH]c(C)c(CCC(=O)Nc2ccccc2OCC)c1C,-9.8,1.4%
Cc1ncc(CO)c2c1Oc1nc(-c3ccccc3)nc(SCC(=O)Nc3cccc(C(F)(F)F)c3)c1C2,-2.7,-3.5%
Cc1cccc(CSc2nc3cc(C(=O)NC4CCCC4)ccc3c(=O)n2Cc2ccccc2)c1,1.2,-7.5%
O=C(Nc1ccc(Br)c(Cl)c1)c1ccc(C(=O)Nc2ccc(Br)c(Cl)c2)cc1,8.6,?
CCOC(=O)c1oc2c(c1C)-c1nn(Cc3cccc(Cl)c3)cc1CC2,4.0,4.2%
CCOC(=O)Cn1c(=O)n(CC2CCCO2)c2nc(-c3ccc(C(C)C)cc3)nc(C(N)=O)c21 (stereo not drawn),-8.7,3.9%
Cc1ccc(-c2nc3ccccc3[nH]2)cc1NC(=O)COc1ccccc1[N+](=O)[O-],1.9,-1.3%
Cc1ccc(NS(=O)(=O)c2ccc(-c3cc(C)no3)cc2)c(Br)c1,18.9,1.5%
CC(C)Cc1nn2c(=O)cc(COC(=O)c3ccc(NC(=O)C4CCCCC4)cc3)nc2s1,-12.4,-17.6%
CCOc1ccc(-c2c(C)nn3c(C)c(C(=O)NCCc4ccc(Cl)cc4)cnc23)cc1OCC,?,11.3%
CN(C)c1ccc(CNc2nc(-c3ccco3)nn2C(=O)c2cccc([N+](=O)[O-])c2)cc1,-15.6,-2.5%
COc1ccccc1N1CCN(S(=O)(=O)c2ccc(F)c(C(=O)Nc3ccc(Cl)cc3C(F)(F)F)c2)CC1,39.1,-3.3%
COc1cc(OC)c(NC(=O)CSC2=Nc3ccccc3N=C(c3ccc(F)cc3)C2)cc1Cl,10.2,1.1%
CCOC(=O)C1CCC(CN(Cc2c(Cl)cccc2Cl)S(=O)(=O)c2ccc(F)c(C)c2)CC1 (stereo not drawn),-18.1,-1.2%
COc1ccc(-c2noc(-c3ccc(N4CCC(C)CC4)c([N+](=O)[O-])c3)n2)cc1OC,-9.1,-1.6%
Cc1ccc(C)c(N2CCN(C(=O)c3cc4c(=O)n(Cc5ccccc5)ccc4nc3C)CC2)c1,12.2,?
Cc1ccc(C)c(N2CCN(CCCNC(=O)Cn3ncc4c5ccccc5n(C)c4c3=O)CC2)c1,7.4,-17.7%
CCOc1ccc(CCNC(=O)C2=C(C)C(=O)OC23CCCCC3)cc1,-15.0,2.0%
CCOc1cc(CNC(=O)c2ccccc2NC(=O)c2nsc3ccccc23)ccc1OC,-13.4,-10.0%
Cc1ccc(OCC(=O)Nc2ccc(OCc3cc(=O)n4c(C)csc4n3)cc2)cc1C,21.1,4.6%
CC1=C(C(=O)Nc2cc(Cl)ccc2C)C(c2ccco2)n2ncnc2N1 (stereo not drawn),-24.6,-0.6%
Cc1ccc(NCc2nc3ccccc3n2CCOc2ccccc2C)cc1,33.5,-15.9%
Cc1cc(C)cc(OCC(=O)Nc2cccc(-c3nc4ccccc4[nH]3)c2)c1,-3.5,4.3%

# Profiles, quoted from the list:
# Listed for CCOc1ccc(-c2c(C)nn3c(C)c(C(=O)NCCc4ccc(Cl)cc4)cnc23)cc1OCC = TRPML1 inh: ?; ClpP mod: 11.3%
# Listed for CC1=C(C(=O)Nc2cc(Cl)ccc2C)C(c2ccco2)n2ncnc2N1 (stereo not drawn) = TRPML1 inh: -24.6; ClpP mod: -0.6%

# Later entries.
SMILES,TRPML1 inh,ClpP mod
Cc1ccc(Cn2c(=O)n(CCCC(=O)NCc3ccccc3Cl)c(=O)c3ccccc32)cc1,22.0,-1.9%
COc1ccc(CSc2nc3ncccc3[nH]2)cc1,5.9,1.2%
O=C(Cn1cc(SCc2ccccc2)c2ccccc21)N1CCCCCC1,-2.9,-2.7%
Cc1ccc2nc(-c3ccc(C#N)cc3)c(Cc3ccccc3C(F)(F)F)n2c1,67.0,4.7%
OC(c1cccc(Cl)c1)c1ncc(-c2cccc(C(F)(F)F)c2)[nH]1 (stereo not drawn),6.1,-1.8%
Cc1ccc(S(=O)(=O)N(CC(=O)NCCSc2ccc(Cl)cc2)c2cccc(Cl)c2)cc1,-2.5,-0.2%
CCc1ccc(NC(=O)c2nc3nc(C)cc(C(F)F)n3n2)cc1,-5.8,1.9%
COc1ccccc1C(=O)NCCn1cc(SCc2ccc(C)cc2)c2ccccc21,-6.5,-3.8%
COc1ccccc1CNC(=O)c1cnc(N(C)C)nc1,3.6,-13.6%
O=CNc1cc(-c2ccccc2Oc2ccccc2)cn2c(-c3ccc(F)cc3)cnc12,1.7,4.0%
COc1ccc(-c2nnc(SCC(=O)Nc3ccc(C)c(C)c3)s2)cc1,-11.4,3.4%
COc1ccccc1Nc1cc(C(=O)NCCCN(C)c2ccccc2)c2ccccc2n1,32.2,?
CCC(C)Sc1oc(-c2ccco2)nc1S(=O)(=O)c1ccc(Cl)cc1 (stereo not drawn),5.1,-20.0%
CC(=O)c1cccc(NC(=O)c2c(C)nn(-c3ccc(F)cc3)c2-n2cccc2)c1,17.3,1.7%
CSc1ccc(CCNC(=O)c2c(C)nn(-c3ccc(F)cc3)c2-n2cccc2)cc1,28.5,-0.6%
Cc1c(-c2nnc(SCC(=O)Nc3ccccc3F)o2)nnn1-c1ccc(F)cc1,8.1,-6.7%
Cc1nc(-c2ccc(S(=O)(=O)Nc3ccc(C)c(N(C)C)c3)cc2)co1,0.2,0.7%
CCc1nnc(NC(=O)c2nc(SCc3ccccc3C)ncc2Cl)s1,-1.9,-1.7%
CCOC(=O)c1ccc(NC(=O)c2cc3cc(C)ccc3n2C)cc1,-10.0,4.4%
Cc1ccc(CSc2nc3ccncc3n2Cc2nc(-c3ccccc3C)oc2C)cc1,-14.5,-24.4%
CCc1ccccc1NC(=O)N1CC(CC)Oc2ccc(Cl)cc21 (stereo not drawn),7.3,0.1%
COc1cc(Cl)c(C)cc1NC(=O)Cn1ncc2c3ccccc3n(Cc3ccccc3)c2c1=O,16.9,-10.1%
Clc1cccc(-c2nc3ccc(Br)cn3c2Cc2ccsc2)c1,16.2,2.1%
COc1ccc(CNC(=O)CCc2c(C)c3cc4c(C)coc4cc3oc2=O)cc1,-7.8,-1.0%
CCCN(CCC)c1nn2c(=O)c(C(=O)NCc3cc(Br)ccc3OC)cnc2s1,17.2,-15.1%
COc1ccc(N2CCN(C(=O)CSCc3nc(-c4ccccc4Cl)oc3C)CC2)cc1,-20.4,1.2%
Cc1cccc(NC(=O)c2cn(-c3ccccc3)nc2-c2ccccc2)c1C,33.9,-5.2%
COc1ccc(-c2noc(-c3ccc(N4CCN(c5ccc(OC)cc5)CC4)c([N+](=O)[O-])c3)n2)cc1,-16.5,-1.6%
CCOC(=O)c1cccc(NC(=O)NCc2ccc3c(c2)CCN3C(=O)c2ccccc2)c1,16.4,-2.3%
COc1ccc(Nc2c(-c3ccc(Cl)cc3)nc3cnccn23)cc1OC,18.9,-2.8%
CCOc1ccc(-c2nnc(SCC(=O)NCc3ccccc3)o2)cc1,-7.9,-6.3%
Cc1ccccc1-c1cc2nc(NCc3cccnc3)n(C)c(=O)c2s1,75.2,-19.6%
CC(C)CCn1c(=O)c2sccc2n2c(CCCC(=O)NC(C)c3ccccc3)nnc12 (stereo not drawn),-4.5,-14.2%
CCOC(=O)c1sc(NC(=O)c2cc3nc(-c4ccc(Br)cc4)cc(C(F)(F)F)n3n2)c(C(=O)OCC)c1C,-20.6,-0.6%
Cc1ccccc1NC(=O)c1c(C)oc2ccc(O)c(CN3CCOCC3)c12,26.5,-1.3%
O=C(CSc1nc(-c2ccccc2)no1)N1CCN(c2ccc(F)cc2)CC1,6.2,1.8%
COc1cc(NC(=O)c2c(-c3ccc(C)cc3)nnc3ccccc23)cc(OC)c1OC,?,1.5%
CCc1ccc(NC(=O)C2CCCN2S(=O)(=O)c2ccc3nc(-c4ccccc4)[nH]c3c2)cc1 (stereo not drawn),3.4,4.4%
CC(=O)c1cc(-c2ccccc2)n(CCC(=O)Nc2ccc(C(C)C)cc2)c1C,14.7,-8.4%
